Screening data from PubChem BioAssay.
PV pol inh = poliovirus RdRp elongation inhibitors, primary screen, biochemical, fluorescence polarization, total intensity. Genome polyprotein (Poliovirus type 1 (strain Mahoney)), P03300. poliovirus polymerase elongation; stronger effect = lower value. % elongation, % (compound at 16.7 µg/mL). actives 0.66% (n = 150,000). AID 588519, 2011; in the data active means % elongation below about 90%; further: some results filed as inactive read as strong as hits
Target sequence (P03300 1749-2209 limits assumed): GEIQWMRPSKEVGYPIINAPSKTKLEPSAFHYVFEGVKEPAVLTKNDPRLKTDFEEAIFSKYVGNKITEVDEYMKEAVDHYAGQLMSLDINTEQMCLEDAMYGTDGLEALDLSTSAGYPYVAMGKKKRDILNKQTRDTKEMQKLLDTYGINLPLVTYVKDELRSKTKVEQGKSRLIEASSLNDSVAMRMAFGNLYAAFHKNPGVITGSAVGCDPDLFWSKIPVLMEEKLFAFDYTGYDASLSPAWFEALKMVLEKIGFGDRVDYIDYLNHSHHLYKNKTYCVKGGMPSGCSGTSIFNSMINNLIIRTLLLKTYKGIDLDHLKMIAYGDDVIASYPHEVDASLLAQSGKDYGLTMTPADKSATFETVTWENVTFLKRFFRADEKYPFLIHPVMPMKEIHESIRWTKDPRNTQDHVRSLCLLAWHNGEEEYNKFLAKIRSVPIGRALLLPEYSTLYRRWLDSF
Mtb MbtI inh = MbtI salicylate synthase inhibitors, primary screen, biochemical, fluorescence intensity; P9WFX0; purified MbtI enzyme, fluorescence intensity read-out; inhibition, %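 (about 17 µg/mL by stock and volumes)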; actives 0.89% (n = 100,000); AID 493033, 2011;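 active means above 50% in both replicates, above 80% if mildly self-fluorescent; inactive means the rest, strongly fluorescent compounds included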;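 further: 0% = mean of negative and 100% = mean of positive controls; one replicate is shown; some compounds called inactive have numbers as strong as hits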
Target sequence (P9WFX0 whole entry, looked up): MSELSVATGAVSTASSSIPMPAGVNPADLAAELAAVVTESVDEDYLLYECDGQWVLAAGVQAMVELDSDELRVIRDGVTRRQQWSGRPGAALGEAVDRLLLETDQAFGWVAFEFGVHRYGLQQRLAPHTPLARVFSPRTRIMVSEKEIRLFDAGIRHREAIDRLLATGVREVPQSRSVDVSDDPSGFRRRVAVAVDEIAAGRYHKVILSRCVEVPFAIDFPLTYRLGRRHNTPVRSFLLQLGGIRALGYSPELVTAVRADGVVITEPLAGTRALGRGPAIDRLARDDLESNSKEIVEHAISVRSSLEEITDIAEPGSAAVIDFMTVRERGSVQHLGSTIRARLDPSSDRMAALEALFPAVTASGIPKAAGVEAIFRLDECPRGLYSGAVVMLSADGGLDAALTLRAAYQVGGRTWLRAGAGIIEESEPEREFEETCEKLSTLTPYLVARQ
Mtb MenB inh = M. tuberculosis MenB inhibitors, primary screen, biochemical, absorbance; MenB enzyme assay, absorbance read-out; some hits fall short of the stated cut; actives 0.43% (n = 100,000); inhibition, %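 (about 12 µg/mL by stock and volumes)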;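 active means mean of two replicates above 30%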;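 further: 0% = no compound and 100% = wells with inactive enzyme; the first replicate is given; strong numbers were not always called active; inactives centre near -10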
PV pol inh intensity = second read-out of PV pol inh, no call of its own (marks repeat the call); % elongation; measured here: total intensity read-out; formula for this scale not given here;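 total fluorescence in place of polarization; lower means less elongation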
* hit, by the source's call; x = no result given; & = joins results of further samples. No enrichment for hits; 2% or so of the library scored in one or more.

Labels used below – A = PV pol inh; B = PV pol inh intensity; C = Mtb MbtI inh; D = Mtb MenB inh
1: O=C1/C(=C/C=C/c2ccco2)SC(=S)N1C1CCCCC1
  A: x	B: x	C: 14	D: -27

2: CCCC(=O)NCCc1cn2ccc(C)cc2n1
  A: 99	B: 106	C: 106	D: 15

3: COC(=O)N1N=C(C2CCCCC2)CC1(O)C(F)(F)F (stereo unspecified)
  A: 99	B: 101	C: 0	D: -9

4: CN(Cc1ccccc1)S(=O)(=O)c1ccc(NC(=O)c2nc(S(C)(=O)=O)ncc2Cl)cc1
  A: 101	B: 102	C: 20	D: 5

5: CC(C)CCSc1nc(N)c2c3c(sc2n1)CCCC3C (stereo unspecified)
  A: 100	B: 103	C: -2	D: -15

6: O=C(N(c1ccccc1)C1C=CS(=O)(=O)C1)C12CC3CC(CC(C3)C1)C2 (stereo unspecified)
  A: 102	B: 106	C: -14	D: -3

7: CCc1nn(C)c2c(=O)c(=O)c2n(C)[nH]1
  A: 79	B: 140	C: 10	D: -3

8: CCn1c(SCc2cc(=O)n3ccsc3n2)nnc1-c1cccs1
  A: 102	B: 106	C: 17	D: 9

9: CC1CCN(CCCNC(=O)C2CC(=O)N(CCc3ccccc3)C2)CC1 (stereo unspecified)
  A: 100	B: 104	C: 5	D: -5

10: CCOC(=O)N1CCC(NS(=O)(=O)c2cccs2)CC1
  A: 102	B: 98	C: -9	D: 4

11: O=C(O)CN1CCCCC1
  A: 100	B: 102	C: 4	D: 31*

12: CCN1C(=O)CC(C(=O)Nc2ccccc2)SC1=Nc1ccccc1 (stereo unspecified)
  A: 103	B: 107	C: -24	D: -7

13: N#Cc1c2ncnc(-c3ccc(Cl)cc3)c2n2ccccc12
  A: 102	B: 109	C: -14	D: -19

14: O=C1N=c2ccccc2=C1N=Nc1c(O)[nH]c2ccccc12
  A: 97	B: 97	C: 6	D: -46

15: C#CCSc1nc2c(c(=O)[nH]1)C(c1ccccc1)CC(=O)N2 (stereo unspecified)
  A: 103	B: 102	C: -4	D: -3

Continued; the last 7 above are carried over.
Labels used below – A = PV pol inh; B = PV pol inh intensity; C = Mtb MbtI inh; D = Mtb MenB inh
9: CC1CCN(CCCNC(=O)C2CC(=O)N(CCc3ccccc3)C2)CC1 (stereo unspecified)
  A: 100	B: 104	C: 5	D: -5

10: CCOC(=O)N1CCC(NS(=O)(=O)c2cccs2)CC1
  A: 102	B: 98	C: -9	D: 4

11: O=C(O)CN1CCCCC1
  A: 100	B: 102	C: 4	D: 31*

12: CCN1C(=O)CC(C(=O)Nc2ccccc2)SC1=Nc1ccccc1 (stereo unspecified)
  A: 103	B: 107	C: -24	D: -7

13: N#Cc1c2ncnc(-c3ccc(Cl)cc3)c2n2ccccc12
  A: 102	B: 109	C: -14	D: -19

14: O=C1N=c2ccccc2=C1N=Nc1c(O)[nH]c2ccccc12
  A: 97	B: 97	C: 6	D: -46

15: C#CCSc1nc2c(c(=O)[nH]1)C(c1ccccc1)CC(=O)N2 (stereo unspecified)
  A: 103	B: 102	C: -4	D: -3

16: CCCNC1=C(c2ccc(OC)cc2)C(=O)c2ccccc21
  A: 101	B: 104	C: -14	D: -8

17: O=C(NC(=O)N1CCN(c2ccc(F)cc2)CC1)c1ccccc1
  A: 101	B: 102	C: -10	D: -5

18: O=C(NC(=O)c1ccccc1C(F)(F)F)NN1CCOCC1
  A: 100	B: 105	C: 5	D: 15

19: COc1ccccc1NC(=O)C1Sc2nnc(-c3ccccc3)n2NC12CCCCC2 (stereo unspecified)
  A: 99	B: 104	C: 15	D: 12

20: C(=NN1CCN(Cc2ccccc2)CC1)c1ccccc1
  A: 102	B: 100	C: -2	D: 0

21: O=C(NCc1ccccc1)C1C2C=CC3(CN(Cc4ccccc4Cl)C(=O)C13)O2 (stereo unspecified)
  A: 101	B: 102	C: -2	D: -3

22: N#C/C(=N\Nc1cccc(F)c1)C(=N)N1CCCCC1
  A: 99	B: 100	C: 20	D: -171

23: O=C(/C=C/c1ccc2ccccc2n1)OCC(=O)N1CCN(S(=O)(=O)c2ccccc2)CC1
  A: 100	B: 100	C: -39	D: -23

24: CCc1cc2c(=O)c(-c3nncn3-c3ccccc3)coc2cc1O
  A: 102	B: 88	C: 24	D: 6

25: CCSc1nc2ccccc2n1C(=O)c1ccc(Cl)cc1
  A: 101	B: 94	C: 2	D: 5

26: CC12CCCC(C(N)=O)(CCC1)C2
  A: 100	B: 106	C: -6	D: x

27: CC(O)CNc1nc2ccccc2n1CC(=O)NC12CC3CC(CC(C3)C1)C2 (stereo unspecified)
  A: 104	B: 105	C: 8	D: -29

28: CCN(CC)C(=O)c1sc(N)c(C#N)c1C
  A: 97	B: 93	C: x	D: 1

29: CCOC(=O)c1scnc1C
  A: 101	B: 102	C: 4	D: -43

30: CN(C)C(CNC(=O)C1CCCN1C(=O)c1cccs1)c1ccccc1 (stereo unspecified)
  A: 106	B: 101	C: 21	D: -3

31: O=C1CCC(C(=O)N[C@@H](Cc2ccccc2)c2nc3ccccc3[nH]2)=NN1
  A: 99	B: 97	C: 0	D: -2

32: O=C(NN1C(=O)C2C3C=CC(C3)C2C1=O)C(O)c1ccccc1 (stereo unspecified)
  A: 100	B: 102	C: -10	D: 0

33: O=C(O)c1ccc(CN2C(=O)SC(Nc3ccccc3)C2=O)cc1 (stereo unspecified)
  A: 101	B: 107	C: -2	D: -1

34: Oc1ccccc1-c1cc2ccccc2[nH]1
  A: 101	B: 100	C: 116	D: 8

35: Cc1noc(-c2ccccc2OCC(=O)O)n1
  A: 100	B: 102	C: 80	D: -67

36: O=C1CCCc2cc(S(=O)(=O)NC3CCCCCC3)ccc2N1
  A: 99	B: 100	C: 4	D: -11

37: N#CCCN1CCNCC1
  A: 104	B: 105	C: -1	D: 8

38: O=C(OCc1cccs1)C1CCCCC1
  A: 102	B: 105	C: -5	D: x

39: FC(F)(F)c1ccccc1CNc1ccc(-c2nc3ncccc3o2)cc1
  A: 103	B: 99	C: 90	D: -62

40: C=C(C)CC(NC(C)c1ccccc1)c1ccco1 (stereo unspecified)
  A: 97	B: 101	C: -218	D: -19

41: CCCCn1nnc(NC(=O)CSc2ccc(Cl)cc2)n1
  A: 98	B: 103	C: 4	D: 9

42: Fc1ccc(CNCCN2CCOCC2)cc1
  A: 106	B: 109	C: x	D: 10

43: CCCCOC(=O)OC1CCS(=O)(=O)C1 (stereo unspecified)
  A: 100	B: 102	C: -12	D: 26

44: CC1c2[nH]c3ccccc3c2CCN1C(=S)Nc1ccccc1 (stereo unspecified)
  A: 101	B: 101	C: -2	D: -14

45: S=C(Nc1ccccc1Cl)N1CCOC1c1c[nH]c2ccccc12 (stereo unspecified)
  A: 101	B: 104	C: -4	D: 1

46: CCC1CSC(=Nc2ccc(Cl)c(Cl)c2)N1C(=O)CCc1c(C)[nH]c(=O)c(C#N)c1C (stereo unspecified)
  A: 105	B: 112	C: -13	D: -10

47: CCOC(=O)Nc1nnc(-c2ccccc2)s1
  A: 101	B: 103	C: 89	D: 5

48: O=C(CN1CCN(c2ncccn2)CC1)N1CCCC1
  A: 102	B: 104	C: -9	D: -34

49: CCC1CCCCN1C(=O)CSc1ccc(Cl)cc1 (stereo unspecified)
  A: 102	B: 97	C: 4	D: x

50: CC1CCN(S(=O)(=O)c2ccc(NC(=O)Cn3c(=O)sc4ccccc43)cc2)CC1
  A: 101	B: 102	C: 5	D: -13

51: CCOc1ccc(OCCCC(=O)NC2=NCCS2)cc1
  A: 107	B: 107	C: -64	D: -8

52: Cc1c(C(=O)O)oc2ccc3c(c12)C(O)CC(C)(C)O3 (stereo unspecified)
  A: 102	B: 100	C: 87	D: -1

53: CCCCN(CC)C(=O)Nc1cn(C)c(=O)c2ccccc12
  A: 101	B: 98	C: 50	D: -15

54: Cc1cccc2c3nc4ccccc4nc3n(CC#N)c12
  A: 102	B: 106	C: -5	D: -33

55: C=C1CSc2nc(=O)c3c4c(sc3n21)CCC4
  A: 99	B: 102	C: 1	D: -22

56: CNC1C(O)C(OC2C(N)CC(N)C(OC3OC(CN)=CCC3N)C2O)OCC1(C)O (stereo unspecified)
  A: 101	B: 101	C: -7	D: 0

57: Cc1ccc(Nc2nc(C(=O)NCc3ccco3)cs2)cc1
  A: 102	B: 100	C: 1	D: -7

58: Cc1cc(C)n2c(SC3CCCCC3NS(=O)(=O)c3ccccc3)nnc2n1 (stereo unspecified)
  A: 102	B: 95	C: -6	D: -21

59: COc1ccc(Cl)cc1S(=O)(=O)N1CCN(Cc2ccc3c(c2)OCO3)CC1
  A: 99	B: 99	C: -8	D: -23

60: CCCCCCCCCCCCCC(=O)N[C@H](C)[C@@H](O)c1ccccc1
  A: 101&99	B: 105&103	C: -12	D: -4

61: CC(C)C(C(=O)Nc1ccc(F)cc1)N1Cc2ccccc2C1=O (stereo unspecified)
  A: 100	B: 102	C: -4	D: 11

62: CCc1cc(CN)on1
  A: 103	B: 104	C: -6	D: -39

63: CCc1ccc(C(=O)CSc2nnc3oc4ccc(S(=O)(=O)N(C)C)cc4n23)cc1
  A: 102	B: 108	C: -11	D: 11

64: CSc1nn(-c2ccccc2)cc1C(=O)Nc1cccc(C(F)(F)F)c1
  A: 101	B: 98	C: 55	D: -14

65: Cn1cc2c(=O)[nH]nnc2n1
  A: 99	B: 100	C: 18	D: -12

66: O=S(=O)(NC1CCCC1)c1ccccc1Cl
  A: x	B: x	C: 8	D: 12

67: COCCn1c(C)cc(C(=O)COC(=O)CN2C(=O)c3ccccc3C2=O)c1C
  A: 104	B: 98	C: 12	D: 7

68: CCC1CCc2nc3sc(C(=O)Nc4ccccc4C(F)(F)F)c(N)c3cc2C1 (stereo unspecified)
  A: 104	B: 102	C: 20	D: -26

69: O=C1NCCN/C1=C\c1ccc2ccccc2n1
  A: 105	B: 113	C: -9	D: -100

70: O=C1OCc2cc(NS(=O)(=O)c3ccc(C4CCCCC4)cc3)ccc21
  A: 98	B: 104	C: 4	D: -3

71: COC(=O)c1cc(NC(=O)C2CCCN(S(=O)(=O)N3CCC(C)CC3)C2)cc(C(=O)OC)c1 (stereo unspecified)
  A: 105	B: 102	C: -16	D: -29

72: CCCN(CCC)S(=O)(=O)c1ccc(C(=O)Nc2cccc(SC)c2)cc1
  A: 108	B: 108	C: -4	D: -25

73: CN(C)S(=O)(=O)c1cccc(COC(=O)c2cnccn2)c1
  A: 101	B: 97	C: 8	D: -33

74: CCCN1Cc2cccc(C(=O)NCc3cccs3)c2C1=O
  A: 103	B: 104	C: -7	D: -12

75: CC1C(=O)C(C)C(c2ccc(O)cc2)NC1c1ccc(O)cc1 (stereo unspecified)
  A: 102	B: 103	C: -7	D: -3

Next section
Labels used below – A = PV pol inh; B = PV pol inh intensity; C = Mtb MbtI inh; D = Mtb MenB inh
76: NC(=O)c1ccc(-c2nnc(-c3ccccc3)o2)cc1
  A: 102	B: 91	C: 74	D: -11

77: CCOC(=O)c1[nH]ncc1Sc1ccc(Cl)cc1
  A: 105	B: 109	C: 3	D: -19

78: O=C(NCc1cccnc1)/C(=C\c1ccc(Br)cc1)S(=O)(=O)c1ccccc1
  A: 99	B: 103	C: 42	D: -11

79: CC(Sc1nnc(-c2ccccc2)n1N)C(=O)O (stereo unspecified)
  A: 104	B: 98	C: 3	D: -31

80: COc1ccccc1/C=N/N(CCC#N)C1=NS(=O)(=O)c2ccccc21
  A: 104	B: 103	C: 9	D: -9

81: CCOC(=O)C1CCN(C(=O)c2cc3c(ccc4ccccc43)o2)CC1
  A: 103	B: 103	C: -7	D: -23

82: C=CCn1c(=O)/c(=C/c2c(O)ccc3ccccc23)s/c1=C(/C#N)c1nnc2n1CCCCC2
  A: 44	B: 235	C: 43	D: -85

83: CC1CCCC(C)N1C(=O)C1c2ccccc2Oc2ccccc21 (stereo unspecified)
  A: 100	B: 104	C: -15	D: -35

84: CCNC(=O)C(C)N (stereo unspecified)
  A: 105	B: 104	C: -2	D: -10

85: CCN(Cc1ccccc1)C(=O)Cn1c(C(C)O)nc2ccccc21 (stereo unspecified)
  A: 102	B: 104	C: -3	D: x

86: COc1ccc(C(=O)N2CC3(C)CC2CC(C)(C)C3)cc1OC (stereo unspecified)
  A: 102	B: 110	C: -2	D: -20

87: CCC(C)(C#CCN1CCOCC1)OC(C)=O (stereo unspecified)
  A: 102	B: 102	C: -10	D: 10

88: CS(=O)(=O)c1ccc(Cl)c(NC(=O)CN2CCN(Cc3ccc(Cl)s3)CC2)c1
  A: 103	B: 91	C: -5	D: -32

89: O=C(NC1CCN(C(=O)Nc2cccc(F)c2)CC1)c1ccco1
  A: 103	B: 99	C: -7	D: -12
